Source: PubChem BioAssay
INS promoter inh: TRM-6 insulin promoter activity inhibition | TRM-6 cells (human fetal islet line), insulin promoter-eGFP reporter, imaging; reporter expression induced with tamoxifen | AID 1273 | inhibition, % at 2 µM | 0.9% of 130,000 active;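 active = inhibition above the mean plus 3 SD, with well images judged a real hit on visual review, cut at about 60% in these data, passing the limit was not always enough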
RGS16-Gao: regulators of human RGS16-Galphao interaction | binding response (% of control), % at 10 µM | 0.38% of 220,000 active | AID 1441 | O15492+P09471 | bead-based flow cytometry RGS16-Galphao binding, fluorescence; actives lie on both sides;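 active = below 25% or above 175%, edge rows of some plates excepted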;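 note: Galphao activated by GDP with aluminum fluoride before binding; 100% = wells without compound and 0% = beads without RGS; some results beyond the cut were filed as inactive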
Target sequence (O15492 whole entry, looked up): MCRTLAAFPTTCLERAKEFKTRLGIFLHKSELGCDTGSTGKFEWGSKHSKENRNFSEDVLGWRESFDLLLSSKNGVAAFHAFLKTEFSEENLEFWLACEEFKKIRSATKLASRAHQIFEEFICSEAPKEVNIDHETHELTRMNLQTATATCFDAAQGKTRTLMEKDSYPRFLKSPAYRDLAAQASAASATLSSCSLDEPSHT
Target sequence (P09471 whole entry, looked up): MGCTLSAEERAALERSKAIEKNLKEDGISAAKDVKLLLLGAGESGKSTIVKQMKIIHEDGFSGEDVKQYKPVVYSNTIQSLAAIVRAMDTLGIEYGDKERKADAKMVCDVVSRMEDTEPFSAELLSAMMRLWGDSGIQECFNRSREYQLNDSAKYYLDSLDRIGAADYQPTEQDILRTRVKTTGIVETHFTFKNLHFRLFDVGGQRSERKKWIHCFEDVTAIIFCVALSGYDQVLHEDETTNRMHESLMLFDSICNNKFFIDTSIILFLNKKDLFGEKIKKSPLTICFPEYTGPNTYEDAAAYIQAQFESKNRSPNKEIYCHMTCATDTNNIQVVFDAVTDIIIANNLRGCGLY
GALR2 ag: GALR2 (human) receptor agonism. O43603. activation, %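 (tested at 5 µM)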. 0.48% of 140,000 active. GALR2-expressing cells, agonist activation read-out;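 active = above mean plus 3 SD of all compounds, about 5% in these data, not always enough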;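 note: 0% = vehicle buffer wells and 100% = reference agonist at full effect; tested in CHO reporter cells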
Target sequence (O43603 whole entry, looked up): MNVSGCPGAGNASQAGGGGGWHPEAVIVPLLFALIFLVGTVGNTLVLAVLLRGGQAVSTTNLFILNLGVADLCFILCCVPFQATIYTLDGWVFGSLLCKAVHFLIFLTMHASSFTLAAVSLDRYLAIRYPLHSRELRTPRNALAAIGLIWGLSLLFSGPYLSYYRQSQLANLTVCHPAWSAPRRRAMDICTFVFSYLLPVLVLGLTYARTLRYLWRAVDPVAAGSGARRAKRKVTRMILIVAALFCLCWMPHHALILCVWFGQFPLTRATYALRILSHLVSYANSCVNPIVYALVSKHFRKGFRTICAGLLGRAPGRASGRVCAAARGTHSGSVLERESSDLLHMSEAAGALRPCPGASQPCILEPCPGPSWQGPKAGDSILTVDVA
PKD1 kinase inh: blocks activity of human protein kinase D1. Q15139. PKD1 kinase fluorescence polarization assay. inhibition, %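 (about 10 µM by stock and volumes)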. 0.056% of 200,000 active;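 active = inhibition of 50% or more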;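 note: controls were vehicle for no effect and a reference inhibitor for full effect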
HSV augment: increases HSV replication in cells. HSV replication augmentation in cells, fold increase. maximum fold increase. 0.005% of 220,000 active. AID 1956;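 active = peak rise of 1.5-fold or more in the series; tested in PC3 cells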;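 note: first round at 10 µM; read as green reporter fluorescence; hits show the peak of a series up to 25 µM; 1 = signal of infected wells without compound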
INS promoter inh cell count: also measured in INS promoter inh; calls as there; normalized cell count, %; measured here: cell count, toxicity; reference of the scale not given here;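 cells exposed to compound for 48 h; stained nuclei by imaging scaled within each plate; lower means fewer cells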
HSV augment primary fold: also measured in HSV augment; calls as there; fold increase; compound at 10 µM; measured here: primary screen fold increase 10 uM; tested in PC3 cells;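 GFP signal in the first replicate; 1 = infected wells without compound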
* = called active by the depositor; i = inactive; · = no result given. Not a hit list. About 1.3% of those tested had a hit in this group.

The line under a structure holds: INS promoter inh, INS promoter inh cell count, RGS16-Gao, GALR2 ag, PKD1 kinase inh, HSV augment, HSV augment primary fold
1	CCOc1ccc(C(=O)Nc2ccc(N3CCCC3)cc2)cc1
  ·, ·, 98, 0.4, -3, i, 0.94
2	Cc1ccc(C2Nc3ccccc3C(=O)N2CCCN2CCOCC2)cc1 (configuration not stated)
  ·, ·, 98, ·, ·, i, 0.98
3	O=C(NN1C(=O)c2ccccc2NC1c1cccnc1)c1ccc([N+](=O)[O-])cc1 (configuration not stated)
  29, 95, 104, ·, 1, i, 0.87
4	CN(Cc1nc(-c2cnccn2)no1)CC(O)c1ccccc1 (configuration not stated)
  ·, ·, 100, ·, 6, i, 0.97
5	O=C(CC1N=C2c3ccccc3N=C(SCc3ccc(F)cc3)N2C1=O)NCc1ccco1 (configuration not stated)
  24, 139, 95, -0.8, -5, i, 0.79
6	CCOC(=O)C(c1ccccc1)C(Nc1cc(C(F)(F)F)cc(C(F)(F)F)c1)c1ccccn1 (configuration not stated)
  ·, ·, 103, ·, ·, i, 0.89
7	Cn1c(=O)c(=O)n(C)c2cc(S(=O)(=O)N3CCCC3C(=O)NCc3cccs3)ccc21 (configuration not stated)
  ·, ·, 97, ·, ·, i, 0.87
8	Cc1cc(C)cc(N(C(=O)c2csnn2)C(C(=O)NC(C)(C)C)c2cccnc2)c1 (configuration not stated)
  -30, 152, 103, ·, 6, i, 0.95
9	Cc1ccc(-n2nc3c(c2NC(=O)c2ccc(OC(C)C)cc2)CS(=O)C3)cc1 (configuration not stated)
  ·, ·, 101, -2.7, -6, ·, ·
10	Cc1cccc(C)c1NC(=O)c1sc(N)nc1-c1ccccc1
  0, 120, 100, ·, -3, i, 0.89
11	Fc1cccc(CN2CCN(Cc3nc(CCc4ccccc4)no3)CC2)c1
  ·, ·, 99, ·, 1, i, 1
12	Fc1ccccc1/C=C1\CCCC2=C1Nc1nnnn1C2c1ccccc1F (configuration not stated)
  53, 97, 119, -0.1, 5, i, 0.81
13	Nc1nc2ncc(C(=O)c3cc(Cl)cc(Cl)c3O)cc2s1
  ·, ·, 87, ·, ·, i, 1.2
14	COC(=O)c1sc(N2CCN(c3ccc(Cl)cc3)CC2)nc1N
  ·, ·, 100, ·, -1, i, 1.1
15	Cc1ccc(Nc2nc(CSc3nnc(-c4ccncc4)n3-c3ccccc3C)cs2)cc1
  -43, 56, 104, -0.9, -6, i, 1
16	Cc1ccc(S(=O)CCNC(=O)Cc2ccccc2)cc1 (configuration not stated)
  ·, ·, 97, ·, 0, i, 0.8
17	CCCNCc1cc(OCC)c(OCC(N)=O)cc1Br
  -33, 64, 102, -4.2, -4, i, 0.84
18	COc1ccccc1N1CCN(C(=O)CC2NC3CCCCC3NC2=O)CC1 (configuration not stated)
  -32, 139, 105, -0.3, 1, ·, ·
19	N#CC1=C(N)N(c2ncn[nH]2)C2=C(C(=O)CCC2)C1c1ccc(F)cc1 (configuration not stated)
  19, 109, 69, -1.3, -4, i, 0.86
20	CC1(C)CC(CNCCC(c2ccc(F)cc2)c2ccco2)CCO1 (configuration not stated)
  ·, ·, 97, ·, ·, i, 0.96

Reformatted in markdown: entries from further up
| cpd | SMILES | INS promoter inh | INS promoter inh cell count | RGS16-Gao | GALR2 ag | PKD1 kinase inh | HSV augment | HSV augment primary fold |
| --- | --- | --- | --- | --- | --- | --- | --- | --- |
| 7 | Cn1c(=O)c(=O)n(C)c2cc(S(=O)(=O)N3CCCC3C(=O)NCc3cccs3)ccc21 (configuration not stated) | · | · | 97 | · | · | i | 0.87 |
| 8 | Cc1cc(C)cc(N(C(=O)c2csnn2)C(C(=O)NC(C)(C)C)c2cccnc2)c1 (configuration not stated) | -30 | 152 | 103 | · | 6 | i | 0.95 |
| 9 | Cc1ccc(-n2nc3c(c2NC(=O)c2ccc(OC(C)C)cc2)CS(=O)C3)cc1 (configuration not stated) | · | · | 101 | -2.7 | -6 | · | · |
| 10 | Cc1cccc(C)c1NC(=O)c1sc(N)nc1-c1ccccc1 | 0 | 120 | 100 | · | -3 | i | 0.89 |
| 11 | Fc1cccc(CN2CCN(Cc3nc(CCc4ccccc4)no3)CC2)c1 | · | · | 99 | · | 1 | i | 1 |
| 12 | Fc1ccccc1/C=C1\CCCC2=C1Nc1nnnn1C2c1ccccc1F (configuration not stated) | 53 | 97 | 119 | -0.1 | 5 | i | 0.81 |
| 13 | Nc1nc2ncc(C(=O)c3cc(Cl)cc(Cl)c3O)cc2s1 | · | · | 87 | · | · | i | 1.2 |
| 14 | COC(=O)c1sc(N2CCN(c3ccc(Cl)cc3)CC2)nc1N | · | · | 100 | · | -1 | i | 1.1 |
| 15 | Cc1ccc(Nc2nc(CSc3nnc(-c4ccncc4)n3-c3ccccc3C)cs2)cc1 | -43 | 56 | 104 | -0.9 | -6 | i | 1 |
| 16 | Cc1ccc(S(=O)CCNC(=O)Cc2ccccc2)cc1 (configuration not stated) | · | · | 97 | · | 0 | i | 0.8 |
| 17 | CCCNCc1cc(OCC)c(OCC(N)=O)cc1Br | -33 | 64 | 102 | -4.2 | -4 | i | 0.84 |
| 18 | COc1ccccc1N1CCN(C(=O)CC2NC3CCCCC3NC2=O)CC1 (configuration not stated) | -32 | 139 | 105 | -0.3 | 1 | · | · |
| 19 | N#CC1=C(N)N(c2ncn[nH]2)C2=C(C(=O)CCC2)C1c1ccc(F)cc1 (configuration not stated) | 19 | 109 | 69 | -1.3 | -4 | i | 0.86 |
| 20 | CC1(C)CC(CNCCC(c2ccc(F)cc2)c2ccco2)CCO1 (configuration not stated) | · | · | 97 | · | · | i | 0.96 |

Carrying on.
The line under a structure holds: INS promoter inh, INS promoter inh cell count, RGS16-Gao, GALR2 ag, PKD1 kinase inh, HSV augment, HSV augment primary fold
21	COc1cc2c(cc1NC(=O)C(C)OC(=O)/C=C/c1ccc(OC(F)F)cc1)oc1ccccc12 (configuration not stated)
  -6, 143, 107, 0.0, 2, i, 0.9
22	Cc1ccc(CS(=O)(=O)CCC(=O)NCc2ccccn2)cc1
  -7, 74, 100, -2.1, -7, i, 0.99
23	Cc1cccc(S(=O)(=O)NNC(=O)c2cc(-c3ccc(F)cc3)nc3ccccc23)c1
  -35, 79, 101, ·, -5, i, 1
24	C[C@@H]1CN(Cc2nc(-c3ccc(Cl)cc3)no2)C[C@H](C)O1
  ·, ·, 99, ·, -13, i, 0.93
25	CN(C)c1ccc(/C=N/NS(=O)(=O)c2ccc(Br)cc2)cc1
  ·, ·, 102, ·, ·, i, 1
26	Cc1ccc(C)c(OCCCCn2cnc3ccccc3c2=O)c1
  -24, 94, 101, -1.6, -3, i, 1.3
27	CCC(C)n1c(SCC(=O)NC(=O)c2cccn2C)nc2ccccc2c1=O (configuration not stated)
  ·, ·, 104, ·, -8, i, 0.88
28	Cc1cc(C)cc(NC(=O)CSc2nc3ccncc3[nH]2)c1
  ·, ·, 96, -0.4, -4, i, 0.95
29	COC(OC)c1ccnc(-c2ccc(OC(=O)c3ccc(F)cc3)cc2)n1
  -33, 128, 97, ·, -6, i, 1.1
30	Cn1nnnc1-c1cc(Br)ccc1NC(=O)c1ccccc1
  -23, 84, 100, -1.7, -6, i, 0.45
31	CCC(C)(C)NC(=O)c1cc(S(=O)(=O)N2CCCCC2)ccc1N1CCOCC1
  15, 106, 98, ·, 3, i, 0.91
32	Cc1ccc(OCC(=O)Nc2cccc(O)c2)cc1C
  70, 118, 87, -0.9, -7, i, 0.8
33	CN(C)S(=O)(=O)c1ccc(C(=O)NCc2ccco2)cc1
  ·, ·, 101, ·, 1, i, 0.97
34	COc1cc2c(cc1O)C(SC)=NC(C)(C)C2
  16, 90, 103, 1.2, -17, i, 0.9
35	O=C(CSc1ccc(-c2ccc(Br)cc2)nn1)N1CCOCC1
  8, 57, 101, ·, -1, i, 0.97
36	O=C(c1ccccc1-n1cccc1)N1N=C(C(F)F)CC1(O)C(F)F (configuration not stated)
  7, 98, 106, -2.0, 4, i, 1
37	Cc1ccc(C2C3=C(CC(C)(C)CC3=O)N=C3c4ccccc4C(=O)C32)cc1 (configuration not stated)
  24, 72, 109, -0.1, -9, i, 0.83
38	COC(=O)c1ccc(NC(=O)Nc2ccc(F)cc2)cc1
  ·, ·, 82, -1.9, -16, i, 0.99
39	CCc1nnc(NS(=O)(=O)c2ccc(NC(=O)c3cccc(Cl)c3)cc2)s1
  ·, ·, 101, ·, -1, i, 0.99
40	COc1ccc(NS(=O)(=O)c2cc(NC(=O)C3CC3)ccc2N2CCOCC2)cc1
  ·, ·, 86, ·, -3, i, 0.76
41	COc1ccc(NC(=O)NNC(=O)c2ccc(Cl)cc2Cl)cc1OC
  -44, 116, 109, ·, -7, i, 0.94
42	CCOc1ccc(NC(=O)CN2C(=O)C3CCCN3C2=O)cc1 (configuration not stated)
  ·, ·, 102, -2.4, -2, i, 0.88
43	COC(=O)C/C=C/[C@@H](C)[C@@H](/C=N/OC[C@H]1O[C@H](c2ccccc2)C=C[C@@H]1Oc1ccc(OC)cc1)OC
  -48, 121, 90, -1.2, 1, ·, ·
44	Cc1ccc2c(Cl)cc(Cl)c(OCC(=O)Nc3cccc(S(=O)(=O)N(C)C)c3)c2n1
  -22, 115, 106, 0.3, -1, i, 0.68
45	Fc1cccc(Cl)c1CNc1ccc(N2CCCC2)cc1
  ·, ·, 97, ·, -6, i, 0.93
46	CC(=O)Nc1ccc(S(=O)(=O)N(C2=NCC(C)S2)c2ccccc2)cc1 (configuration not stated)
  53, 98, 90, -3.1, -13, i, 1.1
47	CCCCCn1c(=O)c(F)cn(Cc2ccc(OC)c([N+](=O)[O-])c2)c1=O
  12, 103, 96, -1.3, -8, i, 0.79
48	Cc1cc(C(=O)N(C)C)sc1-c1ccccc1
  38, 149, 101, -0.9, 4, i, 0.79
49	Cc1nc2ccc(NC(=O)Cc3ccc(Br)cc3)cc2s1
  ·, ·, 108, ·, ·, i, 0.79
50	c1ccc(CSCCc2ccncc2)cc1
  ·, ·, 119, -2.4, 4, ·, ·
51	CC(=O)Oc1ccc(C(=O)[C@H]2[C@H]3C(=O)N(c4ccc(C)cc4)C(=O)[C@H]3[C@@H]3C=CC=NN32)cc1
  -33, 58, 98, -1.7, 1, i, 1.1
52	O=C1c2ccccc2C(=O)N1CC(O)CN1CCOCC1 (configuration not stated)
  i, 65, 105, -1.2, -6, i, 1.1
53	Cc1ccccc1-c1ncc(CN2CCN(C3CCCC3)C(CCO)C2)cn1 (configuration not stated)
  ·, ·, 100, ·, 5, i, 1
54	CCOc1ccc(NC(=O)CN2CCN(CC(=O)Nc3ccc4c(c3)OCCO4)CC2)cc1
  -16, 52, 187, -1.6, -5, i, 1.1
55	Nc1c(S(=O)(=O)c2ccccc2)c2nc3ccccc3nc2n1Cc1ccco1
  ·, ·, 93, -0.2, -4, i, 2.3
56	COc1ccc2cc(C(C)c3nc4ccccc4c(=O)n3N)ccc2c1 (configuration not stated)
  0, 101, 97, -0.5, -2, i, 0.94
57	CCc1c(C)nc2ncnn2c1N1CCC(C(=O)N2CCN(c3ccc(F)cc3)CC2)CC1
  33, 64, -274, -1.1, -12, i, 1.2
58	COc1ccc(CCNC(=O)/C(C#N)=C/c2ccc(OCC(=O)NCC3CCCO3)cc2)cc1OC (configuration not stated)
  ·, ·, 108, ·, -1, i, 0.93
59	CCCCC1CC(CSc2ncn[nH]2)OC1=O (configuration not stated)
  ·, ·, 103, 0.1, 5, i, 0.95
60	Cc1cc2oc(C(=O)N(Cc3ccccc3)c3ccccn3)cc(=O)c2cc1Cl
  ·, ·, 103, ·, ·, i, 0.93
61	NS(=O)(=O)c1ccc(O)c(N2C(=O)c3cccc4c(C(=O)O)ccc(c34)C2=O)c1
  -29, 106, 88, ·, 8, i, 0.96
62	CC1CCCCN1CCn1c(=S)[nH]c2cc3c(cc2c1=O)OCO3 (configuration not stated)
  25, 39, 159, ·, -2, i, 0.83
63	Cc1c(N2C(=O)c3cccc4cccc(c34)C2=O)cnn1C
  ·, ·, 86, ·, ·, i, 0.76
64	C#CCNC(=O)C(C)c1ncc(C(F)(F)F)cc1Cl (configuration not stated)
  -53, 96, 102, ·, 4, i, 0.98
65	Cc1cc2nc(-c3cccc(NC(=O)c4ccc(Br)o4)c3C)oc2cc1C
  ·, ·, 102, -1.4, -5, i, 0.65
66	CN(C)/C=N/c1c(C#N)cnn1-c1ccccc1
  ·, ·, 103, -0.1, -1, i, 0.84
67	CCC(CC)C1=NN2C(=N)/C(=C\c3cc(C)n(-c4cccc(C)c4)c3C)C(=O)N=C2S1
  36, 112, 99, -0.3, -2, i, 1.1
